Screening results from PubChem.
GLA inh pH 4.5: inhibitors of human alpha-galactosidase A at pH 4.5; AID 1467; activity change, negative = inhibition, % at 105 µM; purified enzyme, 4-MU-alpha-Gal fluorescence, pH 4.5; 230,000 tested, under 10 active; inconclusive = small, poorly fitted or top-dose-only inhibition, or a rising curve; inactive = flat fitted curve, though single readings scatter; no compound was filed as active;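 also: 0% = full activity with enzyme and -100% = basal without enzyme; dose as in the result columns while the protocol names 77 µM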
Rango release inh: prevents RanGTP from dissociating the Rango-importin beta complex. O95149+P62826. Biochemical FRET Rango-importin beta, RanGTP-induced dissociation. Potency, µM (highest dose often 46.1 µM), for inactives: at the top dose activity change, negative = inhibition. 0.071% of 340,000 active. AID 540253; active means falling FRET ratio curve, often poorly fitted, with flat reads before Ran was added; inconclusive means other falling curves, or compound fluorescence or quenching; inactive means flat or rising ratio curve;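 also: potency is read from the fitted curve at half-maximal effect; % of control where 0% means no effect; nearly all actives have a fitted effect of over 45% in size; -100% = wells without RanGTP and RCC1; the record marks most hits as doubtful in a second field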
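Two FRET readings bracket the reaction: one 5 min after compound meets Rango–importin beta, another 45 min after RanGTP-RCC1 (0.6 uM Ran, 0.2 uM RCC1, 2 mM GTP) is added. Only the second defines inhibition.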
Rango-impB inh: Rango-importin beta binding inhibition | Q14974 | Rango CFP/YFP FRET sensor + importin beta, 45 min | Potency, µM (titrated, usually from 92.2 µM), for inactives: at the top dose inhibition of complex formation | 0.031% of 340,000 active | AID 540263; active = rising FRET ratio curve, often small or poorly fitted; inconclusive = mostly compound fluorescence or quenching in the first reads; inactive = flat curves in all reads;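 also: potency is read from the fitted curve at half-maximal effect; 0% = DMSO wells and 100% = buffer wells lacking importin beta; nearly all actives have a fitted effect of over 15% in size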
Target sequence (Q14974 whole entry, looked up): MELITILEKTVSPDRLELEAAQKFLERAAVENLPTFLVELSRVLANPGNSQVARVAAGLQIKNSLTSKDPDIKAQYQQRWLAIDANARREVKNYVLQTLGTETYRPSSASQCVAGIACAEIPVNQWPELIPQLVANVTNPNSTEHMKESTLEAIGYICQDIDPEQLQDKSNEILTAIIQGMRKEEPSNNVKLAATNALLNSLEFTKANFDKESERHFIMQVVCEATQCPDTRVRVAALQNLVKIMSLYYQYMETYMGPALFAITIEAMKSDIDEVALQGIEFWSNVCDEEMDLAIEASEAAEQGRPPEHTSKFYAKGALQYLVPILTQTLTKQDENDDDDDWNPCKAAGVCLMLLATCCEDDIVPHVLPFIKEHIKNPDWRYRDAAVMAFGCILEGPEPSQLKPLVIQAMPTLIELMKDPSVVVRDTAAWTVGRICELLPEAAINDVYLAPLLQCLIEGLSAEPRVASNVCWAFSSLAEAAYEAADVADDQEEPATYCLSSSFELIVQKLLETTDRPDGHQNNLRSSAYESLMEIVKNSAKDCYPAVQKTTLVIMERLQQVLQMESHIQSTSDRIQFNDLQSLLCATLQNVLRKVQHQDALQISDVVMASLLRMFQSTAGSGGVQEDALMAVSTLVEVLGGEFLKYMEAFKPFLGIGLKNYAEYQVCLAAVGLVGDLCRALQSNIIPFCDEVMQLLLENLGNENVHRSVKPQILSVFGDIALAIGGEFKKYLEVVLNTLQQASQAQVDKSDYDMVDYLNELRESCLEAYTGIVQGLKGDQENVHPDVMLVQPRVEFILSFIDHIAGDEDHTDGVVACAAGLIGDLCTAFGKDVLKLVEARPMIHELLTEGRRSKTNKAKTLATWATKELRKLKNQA
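FRET biosensor Rango (snurportin 1 IBB between N-terminal EYFP and C-terminal Cerulean), 50 nM in PBS/1 mM DTT/0.02% Tween-20/0.1% BSA, preincubated 5 min RT with compound; 0.125 microM importin beta added, 45 min RT, CFP/YFP FRET ratio read.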
miR-21 FLuc: miR-21 reporter, rising signal | HeLa miR-21 FLuc reporter, luciferase, 48 h | Potency, µM (series often up to 38.3 µM), inactives show at the top dose reporter change, positive = more light | 340,000 tested, under 10 active; active = well fitted rising curve with a large enough effect; inconclusive = small, poorly fitted or top-dose-only effect; inactive = no such curve, though single readings can be large or run the other way;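 also: % of control where 0% means no effect; miR-21 action dims this reporter so a rising signal means less miR-21 action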
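HeLa cells endogenously expressing miR-21, stably carrying CMV-driven firefly luciferase with a downstream miR-21 binding site, 2000 cells/well. Titrations up to approximately 40 uM, 48 hours; luciferase luminescence read.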
* marks the source's active call; other numbers are inactive results; ? = inconclusive; / = no result given; & = joins results of further samples.

(1) COc1ccc(Cc2c(O)nc(SCC(=O)N3CCCCCC3)[nH]c2=O)cc1
(2) Cc1cccc(N(CC(=O)NC2CCCC2)C(=O)CCCC(=O)Nc2ccccn2)c1
(3) NC(=O)C1CCN(C(=O)CCC(=O)c2ccc(Br)cc2)CC1
(4) COC(=O)c1cc(NC(=O)CC2CCCC2)cc(C(=O)OC)c1
(5) CCOC(=O)N1CCN(c2ccc(C(F)(F)F)cn2)CC1
(6) CC(C)CCNC(=O)NC(=O)COC(=O)c1cc(S(=O)(=O)N2CCOCC2)ccc1N1CCCCC1
(7) Cc1ccc(C(C)C)c(OCC(=O)NN=C2CCCC2)c1
(8) Cc1ccc(NC(=O)CCNS(=O)(=O)c2ccc3c(c2)CCC(=O)N3)c(Br)c1
(9) O=C1c2ccccc2NC(c2ccc([N+](=O)[O-])cc2)N1O (stereo not given)
(10) Cc1cc(C(=O)NC(CC(C)C)C(=O)O)cc(C)c1[N+](=O)[O-] (stereo not given)

assay / entry	1	2	3	4	5	6	7	8	9	10
Rango release inh	-12.9%	-8.8%	21.2%	-8.8%	8.4%	2.4%	5.4%	-11.3%	-1.3%	-21.1%
Rango-impB inh	0.0%	-0.4%	-3.3%	-4.6%	1.6%	-1.6%	-0.5%	-1.4%	2.2%	1.8%
miR-21 FLuc	-3.3%	-1.7%	-2.4%	7.4%	-28.2%	-5.2%	-1.7%	-4.4%	29.3%	0.7%
GLA inh pH 4.5	-8.4	-6.0	10.5	/	5.8	0.1	1.5	/	-1.5	4.5

(11) CC12CC(O)C3c4ccc(O)cc4CCC3C1CCC2=O (stereo not given)
(12) CN(C)CC(C)(C)CNS(=O)(=O)c1ccc(Cl)c(Cl)c1
(13) N#Cc1ccc(CSc2nc(N)cc(=O)[nH]2)cc1
(14) CCOC(=O)/C(=N\NC(=O)c1ccccc1)c1ccccc1
(15) COC(=O)CN1C(c2ccccc2O)Nc2ccc(Br)cc2C1c1ccccc1 (stereo not given)
(16) CCNC(=S)NNC(=O)c1csc2c1CCC(C)C2 (stereo not given)
(17) C=CCN(c1ccccc1)S(=O)(=O)c1cccc(C(=O)NCC(c2ccc(F)cc2)N2CCOCC2)c1 (stereo not given)
(18) O=C(Nc1ccc(-n2nncc2-c2ccco2)cc1)c1cccc(F)c1
(19) COc1ccc(Cl)cc1NC(=O)CN(c1ccccc1)S(=O)(=O)N(C)C
(20) Cc1csc(SCC(=O)N2CCN(S(=O)(=O)c3ccc(Cl)cc3)CC2)n1

assay / entry	11	12	13	14	15	16	17	18	19	20
Rango release inh	-4.2%	-6.7%&11.0%	-14.1%	1.2%	2.7%	2.4%	-18.8%	0.2%	-3.7%	-28.0%
Rango-impB inh	-2.0%	5.8%&-0.9%	0.5%	1.0%	0.1%	-0.4%	0.4%	1.5%	-0.7%	-0.9%
miR-21 FLuc	1.2%	-3.1%&-9.5%	1.6%	-6.5%	-1.1%	-7.4%	/	-4.6%	-9.1%	-4.1%
GLA inh pH 4.5	3.5	2.9&-3.6	/	-23.5	-6.4	-9.6	/	0.0	-12.0	0.8

Grouped by structure, the compounds so far with fluorine (3)
(5) CCOC(=O)N1CCN(c2ccc(C(F)(F)F)cn2)CC1
(17) C=CCN(c1ccccc1)S(=O)(=O)c1cccc(C(=O)NCC(c2ccc(F)cc2)N2CCOCC2)c1 (stereo not given)
(18) O=C(Nc1ccc(-n2nncc2-c2ccco2)cc1)c1cccc(F)c1

assay / entry	5	17	18
Rango release inh	8.4%	-18.8%	0.2%
Rango-impB inh	1.6%	0.4%	1.5%
miR-21 FLuc	-28.2%	/	-4.6%
GLA inh pH 4.5	5.8	/	0.0

Next structures.
(21) O=C(O)Cn1nnc(-c2ccc(OCc3ccccc3Cl)cc2)n1
(22) COC(=O)c1ccc(OCC(O)Cn2nnc3ccccc32)cc1 (stereo not given)
(23) CC(=O)c1cccc(NC(=O)Cn2cc3c(n2)CCCC3)c1
(24) C[C@H](CO)N1C[C@H](C)[C@@H](CN(C)Cc2ccc(Cl)c(Cl)c2)Oc2c(NC(=O)Cc3ccccc3)cccc2C1=O
(25) CN(CCC#N)C(=O)CSc1nnc(-c2ccco2)n1N
(26) COc1ccc(C(=O)c2c3ccc([N+](=O)[O-])cc3[n+]([O-])n2CCCC(N)=O)cc1
(27) Nc1nc(-c2c(Cl)cccc2Cl)no1
(28) CCCOc1ccccc1NC(=O)c1ccc([N+](=O)[O-])cc1
(29) O=C(N/N=C/c1ccc(O)cc1)c1csc2c1CCCC2
(30) CCc1nc(CNC(=O)C2CCC(=O)N(Cc3ccccc3F)C2)no1 (stereo not given)

assay / entry	21	22	23	24	25	26	27	28	29	30
Rango release inh	-6.2%	12.0%	4.1%	-1.9%	-21.7%	-0.6%	-1.2%	4.0%	-15.8%	-0.5%
Rango-impB inh	3.9%	4.9%	1.2%	4.9%	?	3.1%	-1.8%	2.0%	1.3%	4.2%
miR-21 FLuc	-13.1%	-54.2%	-0.2%	/	-1.5%	/	-1.4%	-0.9%	-31.0%	-4.3%
GLA inh pH 4.5	/	4.7	0.8	/	4.6	/	-5.9	-1.6	-17.5	/

(31) Cn1c(=O)[nH]c(=O)c2c1nc(Br)n2C/C=N/NC(N)=S
(32) Cc1nnc(NC(=O)CSc2nnc(Cc3cccn3C)n2CCc2ccccc2)s1
(33) O=C(CCc1nc2ccccc2[nH]1)Nc1ccc2c(c1)OCO2
(34) CCOC(=O)C1CCN(C(=O)COC(=O)CNC(=O)c2sc3ccccc3c2Cl)CC1
(35) O=C(NC(Cc1c[nH]c2ccccc12)C(=O)OCC(=O)c1cccc2ccccc12)c1cccs1 (stereo not given)
(36) O=C(CSc1nnc2c(n1)[nH]c1ccccc12)NCc1ccccc1F
(37) Cc1noc(C)c1COc1ccc(C(=O)Nc2nnc(CC(C)C)s2)cc1
(38) O=C(NCCCOc1ccc([N+](=O)[O-])cc1Cl)OCc1ccccc1
(39) C=CCn1c(N)c(C(=O)Nc2ccc(C)c(C)c2)c2nc3ccccc3nc21
(40) CC1CCc2c(C(=O)Oc3cccc(-n4cnnn4)c3)csc2C1 (stereo not given)

assay / entry	31	32	33	34	35	36	37	38	39	40
Rango release inh	/	-2.4%	2.1%	4.0%	-3.2%	4.5%	4.5%	-17.0%	-28.4%	13.8%
Rango-impB inh	/	-4.7%	5.5%	-0.1%	?	-3.0%	4.8%	-3.2%	?	-4.2%
miR-21 FLuc	5.7%	-4.5%	-22.3%	/	-6.2%	-4.6%	/	/	-2.9%	-20.7%
GLA inh pH 4.5	-1.5	4.9	-14.9	/	1.8	/	/	/	9.4	-11.2

(41) COc1ccc(OC)c(C(=O)NC(CC(N)=O)c2ccc(NCc3ccc(F)c(F)c3)c([N+](=O)[O-])c2)c1 (stereo not given)
(42) CCN(C(=O)COC(=O)CNC(=O)c1ccc2ccccc2c1)C1CCS(=O)(=O)C1 (stereo not given)
(43) CCOC(=O)C1CCN(C(=O)CNS(=O)(=O)c2ccc(Br)s2)CC1
(44) CCCCN(CC)S(=O)(=O)c1ccc(C(=O)N(CCCN(C)C)c2nc3cc(C)cc(C)c3s2)cc1
(45) O=C(COC(=O)c1ccccc1Br)Nc1ccc2[nH]c(=O)[nH]c2c1
(46) Cc1cc([N+](=O)[O-])cc2c1NC(=O)C2(O)N1CCCCCC1 (stereo not given)
(47) O=C1CN(C(=O)COc2ccc(Br)cc2)c2ccccc2N1
(48) c1ccc(C[C@H]2CNCCN2CCc2cccc3ccccc23)cc1
(49) O=C(Cc1ccc(Br)cc1)NCCc1ccc(Cl)cc1Cl
(50) S=C(c1c[nH]c2ccccc12)N1CCOCC1

assay / entry	41	42	43	44	45	46	47	48	49	50
Rango release inh	4.9%	-6.7%	-1.3%	-0.3%	-0.3%	1.4%	8.4%	1.6%	9.3%	-1.9%
Rango-impB inh	0.4%	0.6%	-0.9%	0.0%	-3.4%	3.2%	-0.4%	1.6%	-2.9%	-1.4%
miR-21 FLuc	-2.0%	-4.9%	-3.6%	21.6%	/	-7.2%	-6.4%	/	-18.7%	-1.5%
GLA inh pH 4.5	/	12.1	7.8	-5.4	/	-14.6	2.4	/	-9.7	-9.3

Along the list, quoted from above:
Rango release inh for entries 42 to 45, in order: -6.7%, -1.3%, -0.3%, -0.3%

(next part)
(51) Cc1cc(C)c(NC(=O)/C(C#N)=C/c2ccc(OCc3ccc(F)cc3)cc2)c(C)c1
(52) CCOc1ccc(C(C)NC(=S)NCc2ccc(Cl)cc2)cc1 (stereo not given)
(53) Cc1ccc(S(=O)(=O)N2CCN(C(=O)Cc3c(F)cccc3Cl)CC2)cc1
(54) Cc1cccc(NC(=O)C2(C)CC3c4ccccc4C2c2ccccc23)c1C (stereo not given)
(55) O=c1[nH]c(CSc2ccccn2)nc2c1oc1ccccc12
(56) CC1(c2ccc3ccccc3c2)NC(=O)N(CC(=O)N2CCN(Cc3ccc(C#N)cc3)CC2)C1=O (stereo not given)
(57) CCCn1c(N)c(N(CCOC)C(=O)c2ccc(N3CCCC3=O)cc2)c(=O)[nH]c1=O
(58) COc1ccc(CNC(=O)CCCn2nc(C)c3c(C)n(-c4ccc(C)cc4)nc3c2=O)cc1OC
(59) O=C(Nc1cc(S(=O)(=O)N2CCOCC2)ccc1Cl)c1ccc(=O)[nH]c1
(60) COc1ccc(CC(=O)n2nc(-c3ccc(Cl)cc3)nc2NCc2ccco2)cc1

assay / entry	51	52	53	54	55	56	57	58	59	60
Rango release inh	-11.8%	-2.7%	-14.3%	7.2%	-5.7%	-8.6%	-8.2%	-7.1%	12.4%	-1.3%
Rango-impB inh	0.6%	4.6%	-0.1%	-0.1%	-0.9%	9.7%	-1.5%	-0.9%	-2.8%	-0.2%
miR-21 FLuc	-5.0%	21.2%	/	-0.1%	-53.3%	/	/	7.0%&7.6%	/	-36.0%
GLA inh pH 4.5	12.7	3.4	/	-2.0	-7.8	/	/	/	/	0.8

(61) O=C(NCc1ccc(F)cc1)c1ccccc1OCc1ccccc1
(62) COc1ccc(-n2c(=O)c3c4c(sc3n(CC(=O)Nc3cc(C)[nH]n3)c2=O)CCC4)c(OC)c1
(63) Cc1ccc(CS(=O)(=O)Cc2ccc(C(=O)NCC3CCCO3)o2)cc1 (stereo not given)
(64) CC1(C)Oc2ccc(C(=O)N3CCCC3)cc2N(CC(=O)NCc2ccccc2)C1=O
(65) O=C1C2C3C=CC(C3)C2C(=O)N1c1ccc(N2CCN(c3ccccn3)CC2)c([N+](=O)[O-])c1 (stereo not given)
(66) COc1ccc(N2C(S)=C(C#N)C(=O)NC23CCCCC3)cc1
(67) Cc1ccc(NC(=O)c2cnccn2)c(OC(F)F)c1
(68) COc1cc(NC(=S)N2CCN(CCO)CC2)cc(OC)c1

assay / entry	61	62	63	64	65	66	67	68
Rango release inh	5.3%	-13.1%	-12.6%	-13.4%	2.2%	2.1%	9.5%	3.6%
Rango-impB inh	-1.0%	-6.6%	2.9%	0.5%	0.8%	-0.5%	-0.3%	-0.7%
miR-21 FLuc	13.0%	11.0%	-0.4%	0.1%	20.5%	-6.7%	-12.1%	2.1%
GLA inh pH 4.5	1.3	-5.8	4.3	-5.7	-7.4	-2.5	6.6	/

As entered above:
GLA inh pH 4.5 with COc1ccc(N2C(S)=C(C#N)C(=O)NC23CCCCC3)cc1 = -2.5
miR-21 FLuc with COc1cc(NC(=S)N2CCN(CCO)CC2)cc(OC)c1 = 2.1%
Rango-impB inh with Cc1ccc(CS(=O)(=O)Cc2ccc(C(=O)NCC3CCCO3)o2)cc1 (stereo not given) = 2.9%
miR-21 FLuc with Cc1ccc(NC(=O)c2cnccn2)c(OC(F)F)c1 = -12.1%
Rango-impB inh with O=C1C2C3C=CC(C3)C2C(=O)N1c1ccc(N2CCN(c3ccccn3)CC2)c([N+](=O)[O-])c1 (stereo not given) = 0.8%
GLA inh pH 4.5 with O=C(NCc1ccc(F)cc1)c1ccccc1OCc1ccccc1 = 1.3

Not all compounds are listed. The share of hits here may be higher or lower than overall.
